UCH37 DUB inh: blocks the human deubiquitinase UCH37; purified proteasome/UCH37, Ub-AMC cleavage fluorescence; inhibition, % (test concentration not listed); actives 0.33% (n = 330,000);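 active means mean of two replicates above 20%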;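 further: 0% = compound-free wells with enzyme and 100% = wells lacking proteasome; stock transfer was 100 nL into about 20 µL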
Target sequence (Q9Y5K5 whole entry, looked up): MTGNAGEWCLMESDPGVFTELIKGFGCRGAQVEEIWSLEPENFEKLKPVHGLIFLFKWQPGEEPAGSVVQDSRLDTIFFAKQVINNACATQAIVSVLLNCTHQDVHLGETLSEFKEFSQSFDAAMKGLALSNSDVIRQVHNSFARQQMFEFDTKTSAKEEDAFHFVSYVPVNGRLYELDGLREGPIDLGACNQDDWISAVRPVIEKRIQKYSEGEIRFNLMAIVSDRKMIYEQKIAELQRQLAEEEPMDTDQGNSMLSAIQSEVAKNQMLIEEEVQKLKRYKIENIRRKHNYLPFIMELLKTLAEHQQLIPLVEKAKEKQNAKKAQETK
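Schedule: 30 min plus 25 min, room temperature / Material: human UCH37 within purified proteasomes / Technique: AMC fluorescence intensity at 355/460 nm / Buffer or medium: pH 7.4 Tris-HCl (50 mM) with ovalbumin, ATP-MgCl2, DTT / Controls: wells without proteasome as full block, compound-free enzyme plus substrate as uninhibited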
ALR inh: human ALR oxidase inhibition via reduced H2O2 | actives 3.8% (n = 290,000) | inhibition, % (no concentration beside the values) | purified ALR, DTT oxidation, H2O2 HRP-luminol luminescence;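 active means mean and each replicate at 75% or more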;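 further: stock transfer was 7.5 nL into about 7.5 µL; 0% = neutral wells and 100% = wells with inactivated enzyme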
FGF22 binding: shifts melting point of recombinant human FGF22 | Q9HCT0 | recombinant FGF22 thermal shift, SYPRO orange fluorescence; percent of sucrose octasulfate shift, DMSO zero | calls only at 9.99 µM | actives 1.5% (n = 340,000);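 active means melting point raised past a set limit in the mean and every replicate; three in four hits are not shown here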
Target sequence (Q9HCT0 whole entry, looked up): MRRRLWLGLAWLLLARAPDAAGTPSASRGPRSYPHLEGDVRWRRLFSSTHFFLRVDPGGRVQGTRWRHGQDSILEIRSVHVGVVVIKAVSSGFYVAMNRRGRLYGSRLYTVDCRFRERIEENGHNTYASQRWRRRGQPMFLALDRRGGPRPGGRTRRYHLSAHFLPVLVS
Ecoli growth: inhibitors of Escherichia coli growth; OD600, 23 h; hits give low values; OD600 absorbance (concentration not given with the values); actives 0.21% (n = 330,000); AID 1053175;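 active means OD600 absorbance below the run mean of sample wells minus 3.6 SD, in any replicate, cut at about 0.56 in these data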;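 further: stock transfer was 300 nL into about 60 µL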
HNF4A DNA FP: change in binding of human HNF4 alpha to DNA; P41235; HNF4a-FITC DNA binding, fluorescence polarization, 1 h; activity change, % at 10 µM; actives 0.3% (n = 360,000); in the data active means activity change above about 30%, passing the limit was not always enough;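 further: controls were the assay level and a saturating level of protein; the project sought stronger binding though the title names inhibitors; some compounds called inactive have numbers as strong as hits; positive values seem to mean higher polarization but the record does not say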
Beta2AR agonist: agonists of human beta-2 adrenergic receptor inducing internalization. P07550. Am2.2-beta2AR cells, FAP receptor internalization, flow cytometry; reference of the scale not given here. response, % (test concentration not listed). actives 0.43% (n = 340,000);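 active means response above a set limit, near 3 SD of response in nonfluorescent compounds, cut at about 42% in these data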;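 further: stock transfer was 100 nL into about 11 µL; a reference agonist was the positive control; negative values mostly stem from fluorescent compounds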
Target sequence (P07550 whole entry, looked up): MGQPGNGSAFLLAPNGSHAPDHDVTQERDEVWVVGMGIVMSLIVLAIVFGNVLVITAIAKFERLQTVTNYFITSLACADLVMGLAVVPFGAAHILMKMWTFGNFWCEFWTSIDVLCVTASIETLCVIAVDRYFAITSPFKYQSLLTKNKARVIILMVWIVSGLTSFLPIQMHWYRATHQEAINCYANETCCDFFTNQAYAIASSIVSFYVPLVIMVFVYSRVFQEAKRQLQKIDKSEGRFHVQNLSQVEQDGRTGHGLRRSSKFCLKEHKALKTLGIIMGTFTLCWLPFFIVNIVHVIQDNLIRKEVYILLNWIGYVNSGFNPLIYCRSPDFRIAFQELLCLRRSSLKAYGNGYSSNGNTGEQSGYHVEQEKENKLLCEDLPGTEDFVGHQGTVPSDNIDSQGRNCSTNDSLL
rRNA inh HTS: selective bacterial rRNA inhibition in E. coli | E. coli WT GFP vs humanized-ribosome RFP mutants, fluorescence, 24 h; hits give low values; DMSO median 0, no signal -100 | GFP signal change (wild-type ribosome), % (concentration not given with the values) | AID 720706 | actives 1.6% (n = 350,000);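 active means significant combined selectivity score with lowered wild-type GFP, culture density cut under 30%, mutant RFP and density less affected; inactive means any of these conditions unmet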; further: one replicate is shown; some compounds called inactive have numbers as strong as hits
rRNA inh HTS OD600: further read-out of rRNA inh HTS, marked with its call; OD600 change, %; measured here: OD600 growth;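 optical density of the mix in the first replicate; 0 = DMSO median and -100 = no signal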
rRNA inh HTS RFP: second read-out of rRNA inh HTS, no call of its own (marks repeat the call); RFP signal change, %; measured here: RFP humanized mutant strains;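 first replicate; 0 = DMSO median and -100 = no signal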
Starred values were filed as active, the others as inactive; i = inactive; / = no result given. The list is partial (hit frequency here may not be typical).

No. | Structure | UCH37 DUB inh | ALR inh | FGF22 binding | Ecoli growth | HNF4A DNA FP | Beta2AR agonist | rRNA inh HTS | rRNA inh HTS OD600 | rRNA inh HTS RFP
1 | CCOC(=O)c1ccc(NC(=O)CCC(=O)NCc2ccco2)cc1 | 1.5 | 1 | i | 0.72 | -4.1 | 2 | 6 | 13 | -0.5
2 | Cc1oc2c(c(C)cc3oc(=O)c(CC(=O)N[C@@H](C)C(=O)O)c(C)c32)c1C | -110 | / | i | 0.7 | -3.9 | -1 | -9 | -12 | -0.5
3 | COC(=O)Cn1c(CN2CCC(Cc3ccccc3)CC2)nc2c1c(=O)n(C)c(=O)n2C | -1.0 | -7 | / | 0.68 | 3.2 | -6 | / | / | /
4 | COc1ccc2c(c1)C(NC(C)=O)C(=O)N2C (stereo not drawn) | -3.2 | 21 | / | 0.76 | -0.3 | 4 | / | / | /
5 | Cc1nn(-c2ccccc2)c(C)c1C(=O)OCC(=O)N1CCN(S(=O)(=O)c2ccccc2)CC1 | 6.3 | -26 | / | 0.67 | -3.7 | -11 | / | / | /
6 | O=[N+]([O-])c1cccc(C=NNc2ccc3ccccc3n2)c1O | / | / | i | / | 3.6 | 4 | -15 | -22 | -5.0
7 | COC(=O)c1ccccc1NC(=O)c1sc(N)nc1C | -0.7 | -1 | / | 0.69 | 2.1 | 0 | / | / | /
8 | COC(=O)c1cccc(NC(=O)CC2C(=O)NCCN2C(=O)Nc2cc(C)cc(C)c2)c1 (stereo not drawn) | -0.4 | -11 | i | 0.69 | 0.3 | 2 | -3 | -14 | 10
9 | C/C(=N/NC(=O)c1ccc(Cl)cc1Cl)c1cccnc1 | / | -10 | / | / | -5.3 | 5 | / | / | /
10 | CC1=NN(c2ccc(C(=O)OC(C)C)cc2)C(=O)/C1=C\C=C\c1ccco1 | 2.0 | 3 | / | 0.68 | -5.4 | -1 | / | / | /
11 | CN(C)CCCNC(=O)c1cc(Br)ccc1Cl | -0.8 | -1 | / | 0.7 | 0.9 | -3 | / | / | /
12 | Cc1ccccc1C(=O)NCC(=O)OCC(=O)NC(C)C1CC2CCC1C2 (stereo not drawn) | -0.7 | 1 | i | 0.65 | -2.9 | 9 | -1 | 3 | -0.3
13 | O=C(CC(c1ccccc1)c1ccccc1O)N1CCCCC1 (stereo not drawn) | 1.0 | 24 | i | 0.67 | 0.2 | 7 | -9 | -13 | -0.8
14 | COc1ccc(OC)c(/C=C/C(=O)OCC(=O)Nc2ccc3c(c2)OCCO3)c1 | -19 | -1 | / | / | -0.4 | -2 | / | / | /
15 | Cc1cc(C)nc(N2CCCC(C(=O)NCCc3ccccc3F)C2)n1 (stereo not drawn) | -1.2 | -12 | i | 0.72 | -0.6 | -5 | 15 | 7 | -5.6
16 | O=C(O)CC(NC(=O)C1CCCCC1)c1ccc(OC2CCCC2)cc1 (stereo not drawn) | 2.5 | 2 | i | 0.68 | -0.4 | 2 | 7 | 16 | 0.2
17 | Cc1cccc(N(CC(N)=O)C2SC(=O)N(c3ccccc3)C2=O)c1 (stereo not drawn) | 4.8 | 4 | / | 0.76 | -1.9 | 0 | / | / | /
18 | CCOCCCNC(=O)NC(=O)CN1CCN(S(=O)(=O)c2ccc3c(c2)OCCO3)CC1 | 1.6 | / | i | 0.69 | -4.0 | 2 | 7 | -1 | 1.0
19 | O=C(NC(=S)N1CCCCC1)c1csc([N+](=O)[O-])c1 | 6.8 | -16 | i | 0.67 | -4.1 | -1 | -23* | 6.3* | 5.5*
20 | Cc1cccc2c1cnn2C(=O)Nc1ccccc1Cl | -1.5 | -8 | i | 0.7 | 0.2 | -8 | 10 | 1 | -2.4
21 | COc1ccccc1N1CC(C)(C)C(=O)N(C(=O)c2ccc(Cl)cc2)C1=S | 4.8 | 2 | i | 0.71 | 0.3 | 1 | 6 | -2 | 1.3
22 | CC(C)OCCCNc1nc2c(cnn2C)c(=O)[nH]1 | 2.1 | / | i | 0.7 | -0.3 | 7 | 12 | 14 | 2.3
23 | O=C(C[C@H]1C/C=C\CC[C@H](Cc2ccc(F)cc2)C(=O)OCCNC1=O)NCCO | 3.7 | -1 | i | / | -2.5 | 5 | 2 | 2 | 1.4
24 | CC(=O)Nc1ccc(NC(=O)N2CCCCC2)cc1 | 0.7 | -7 | / | 0.66 | -0.1 | -3 | / | / | /
25 | COc1ccc(C(=O)NCC(=O)OCC(=O)NC2CCCCCC2)cc1OC | -2.0 | 11 | i | 0.71 | 3.0 | 3 | 7 | -5 | 4.3
26 | O=C(Nc1ccc(Cl)c(C(F)(F)F)c1)N1CCCC(O)C1 (stereo not drawn) | 2.5 | 1 | / | 0.68 | 1.3 | -6 | / | / | /
27 | Cc1ccc(C(=O)C2CC2)cc1C | -1.2 | / | i | 0.61 | -0.2 | 0 | / | / | /
28 | CCCc1[nH]nc2c1C(C1CCCCC1)C(C#N)=C(N)O2 (stereo not drawn) | 4.4 | 22 | i | 0.75 | -2.7 | 0 | -17 | -22 | 0.8
29 | CC(C)Sc1nc(SCC(=O)O)c2c3c(sc2n1)COC(C)(C)C3 | -18 | / | i | 0.72 | -0.9 | 5 | -11 | -10 | 6.5
30 | COc1ccccc1C(=O)NCCOc1ccc(C)c(C)c1 | 1.9 | -1 | i | 0.7 | 2.3 | 0 | 3 | 9 | 3.6
31 | CCCC(=O)N(c1ccc(C(=O)O)cc1)c1nc(-c2ccccc2)c(C)s1 | 2.8 | 12 | i | 0.66 | 2.3 | 13 | 19 | 16 | -1.3
32 | CCOC(=O)C1CCN(c2ccc([N+](=O)[O-])cc2S(=O)(=O)N2CCOCC2)CC1 | / | / | i | / | 0.4 | 3 | -4 | -6 | -1.2
33 | CCn1c(=O)c([N+](=O)[O-])c(NCCCn2ccnc2)c2ccccc21 | 6.7 | 1 | i | 0.64 | 3.2 | -9 | 11 | 11 | 1.2
34 | CCN(CC)S(=O)(=O)c1cc(C)ccc1NC(=S)Nc1cccnc1 | 4.1 | -10 | i | 0.69 | -1.6 | 15 | -7 | 3 | 28
35 | COc1ccccc1NS(=O)(=O)c1cc(NC(=O)c2ccccc2[N+](=O)[O-])ccc1N1CCOCC1 | 5.3 | -4 | i | 0.66 | -1.0 | 7 | -4 | -8 | -8.1
36 | COc1ccc(NC(=O)CN2C(=O)c3ccccc3Sc3ccc(C(=O)N4CCOCC4)cc32)c(OC)c1 | 4.2 | -17 | i | 0.69 | 3.0 | -1 | 0 | 3 | 6.3
37 | O=C(COC(=O)/C=C/c1ccc(F)cc1)Nc1cccc(S(=O)(=O)N2CCCC2)c1 | 1.4 | 49 | i | 0.66 | -1.2 | -10 | / | / | /
38 | COc1ccc(-c2nnn(CC(=O)OC3CCCCC3)n2)cc1OC | 1.9 | -1 | / | 0.69 | 4.5 | 5 | / | / | /
39 | Cc1ccc(N2CC(C(=O)N3CCCCC3)CC2=O)cc1C (stereo not drawn) | 1.3 | -3 | i | 0.71 | -1.8 | 6 | 16 | 5 | 2.9
40 | Cc1ccc(NC(=O)N2CCCC(c3nc(-c4ccc(F)cc4)no3)C2)cc1 (stereo not drawn) | 3.7 | 1 | i | 0.71 | -3.8 | -3 | -23 | -26 | -2.1
41 | O=C(c1ccc([N+](=O)[O-])cc1)N(Cc1cccs1)C1CCS(=O)(=O)C1 (stereo not drawn) | 1.7 | -2 | i | 0.64 | 1.4 | 9 | 5 | 9 | 0.1
42 | C=CC[C@@H](CC(=O)N[C@H](CO)Cc1ccccc1)C(=O)N[C@H](COC(=O)[C@@H](CC=C)CC(=O)OC(C)(C)C)Cc1ccccc1 | 1.0 | 1 | i | / | 0.5 | 1 | 7 | 10 | -8.5
43 | CN(CC(=O)Nc1ccccc1Cl)C(=O)c1ccccc1Sc1ccccc1C#N | 3.1 | -6 | i | 0.67 | -0.1 | 9 | -10 | -20 | -2.2
44 | CC(NS(=O)(=O)c1ccc(Br)cc1)c1ccccc1 (stereo not drawn) | / | 8 | i | / | 2.6 | 12 | -10 | -5 | -4.7
45 | CCN(CC)S(=O)(=O)c1cc(C(=O)Nc2cccnc2Cl)ccc1Cl | 1.6 | 4 | i | 0.69 | -0.2 | 6 | 5 | 0 | 4.0
46 | O=C(Nc1ccc(F)cc1)C1CCN(S(=O)(=O)c2cccs2)CC1 | -3.7 | -4 | i | 0.7 | 3.2 | 0 | -19 | -25 | -13
47 | Cc1ccc(NC(=O)CSc2nnnn2-c2ccc3c(c2)OCO3)cc1C | 1.7 | -2 | / | 0.68 | 3.1 | -4 | / | / | /
48 | COc1cc(S(=O)(=O)N2CCCCC2)ccc1NC(=O)c1ccc(F)cc1 | 2.3 | -2 | / | 0.66 | 1.3 | -2 | / | / | /
49 | Cc1cc(/C=C2/NC(=O)NC2=O)c(C)n1-c1cccnc1 | 12 | 56 | i | 0.68 | 0.6 | -4 | 6 | 17 | 7.0
50 | O=C(CSc1n[nH]c(-c2ccccc2)n1)N1CCCC1 | -0.2 | -4 | i | 0.66 | -0.5 | -5 | -3 | -4 | -0.8

Complete entries as entered above. Order of screens: UCH37 DUB inh, ALR inh, FGF22 binding, Ecoli growth, HNF4A DNA FP, Beta2AR agonist, rRNA inh HTS, rRNA inh HTS OD600, rRNA inh HTS RFP
Record of CC(C)OCCCNc1nc2c(cnn2C)c(=O)[nH]1 : 2.1, /, i, 0.7, -0.3, 7, 12, 14, 2.3
Record of CCCC(=O)N(c1ccc(C(=O)O)cc1)c1nc(-c2ccccc2)c(C)s1 : 2.8, 12, i, 0.66, 2.3, 13, 19, 16, -1.3
Record of CC(C)Sc1nc(SCC(=O)O)c2c3c(sc2n1)COC(C)(C)C3 : -18, /, i, 0.72, -0.9, 5, -11, -10, 6.5

Continuation.
No. | Structure | UCH37 DUB inh | ALR inh | FGF22 binding | Ecoli growth | HNF4A DNA FP | Beta2AR agonist | rRNA inh HTS | rRNA inh HTS OD600 | rRNA inh HTS RFP
51 | COc1ccc(C2c3ccc(O)cc3Oc3ncn4nc(-c5ccncc5)nc4c32)cc1OC (stereo not drawn) | 1.2 | 1 | i | 0.71 | 5.0 | -1 | 3 | -1 | -1.7
52 | COC(=O)c1ccncc1N | i | -1 | i | 0.64 | 0.1 | -3 | 3 | 2 | 3.1
53 | CC1Cc2[nH][nH]c(=O)c2C(C2CC2)O1 (stereo not drawn) | / | / | i | / | -0.7 | / | 18 | 21 | 2.0
54 | COc1ccc(C(=O)c2ccc(CC(=O)O)s2)cc1 | 6.5 | -4 | i | 0.71 | 3.3 | 3 | 9 | 2 | -2.4
55 | CCN(CC)C(=O)Oc1ccc(Br)cc1C(=O)Nc1ccc(F)c(Cl)c1 | -1.5 | / | i | 0.67 | 2.3 | 6 | -28* | -14* | -1.2*
56 | COc1cccc(C2CC(C(F)(F)F)n3nc(C(=O)Nc4c(C)n(C)n(-c5ccccc5)c4=O)cc3N2)c1 (stereo not drawn) | -0.9 | 0 | i | 0.67 | 1.5 | 3 | 11 | 9 | -1.4
57 | COc1ccc2[nH]c(=S)[nH]c2c1 | 7.7 | 98* | / | 0.75 | 1.3 | 23 | / | / | /
58 | CC(=O)Nc1ccc(SCC(=O)N(CCC#N)c2ccc(C)cc2)cc1 | 2.7 | 97* | / | 0.66 | 2.0 | -5 | / | / | /
59 | Cn1c(C(=O)N[C@@H](Cc2ccccc2)C(=O)O)cc2cc(F)ccc21 | -2.6 | 7 | i | 0.68 | 4.9 | -6 | -4 | -8 | 0.9
60 | CCCCCC1CC(COc2ccccc2)OC1=O (stereo not drawn) | -2.3 | 7 | i | 0.66 | -1.9 | -3 | -3 | 0 | 0.0
61 | COc1cc(OC)c(C2C(C(=O)O)c3ccccc3C(=O)N2C)cc1OC (stereo not drawn) | 2.1 | -32 | / | 0.73 | -0.5 | -5 | / | / | /

Assay outcomes from PubChem BioAssay.
